Choline anaer gr – growth inhibitors of anaerobic choline-fed gram-negatives, minimal medium, absorbance. Gram-negative bacterium anaerobic choline minimal medium; active compounds read low; many inactives read as strong as hits in the columns shown. calls only. 0.2% of 55,000 active. AID 1963822, 2024;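 active = growth z-score on choline under -2 at 7 or 20 h with little or no fall on glycerol, limits in tiers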;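 also: stock transfer was 300 nL into about 50 µL; the organism is E. coli; final concentration not given here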
Choline anaer gr early – recorded beside Choline anaer gr, whose call it bears; z-score; measured here: choline growth z-score, timepoint 1;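 score of optical density at 7 h as mean of two plates; lower means less growth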
* = called active by the depositor; i = inactive; & = joins results of further samples. Only part of the results is shown (hit frequency here may not be typical).

no.	canonical_smiles	Choline anaer gr	Choline anaer gr early
1	COc1ccc(N2C(=O)c3cc(C(C)(C)C)nn3CC2(C)C(=O)NC2CCCCC2)c(OC)c1 (stereo unspecified)	i	-2.6
2	Cc1cccc2cc3c(nc12)N(S(=O)(=O)c1ccc(C(C)C)cc1)CC3	i	1.1
3	COc1ccc(C2c3c(n(C)c4ccccc34)C(=O)N2CC(=O)NCCc2ccc(C)cc2)cc1 (stereo unspecified)	i	-0.71
4	COc1ccc(S(=O)(=O)N2CCc3cc4ccc(C)cc4nc32)cc1	i	-1.84
5	CCC(SC1=Nc2ccccc2C2=NC(C)C(=O)N12)C(=O)N1CCc2ccccc21 (stereo unspecified)	i	-0.35
6	Fc1cccc(/C=N/N=C/c2cccc(F)c2)c1	i	-0.21&0.52
7	COc1ccc(Cn2c(CCC(=O)N3CCOCC3)nc3cccnc32)cc1	i	1.3
8	Cc1nn(-c2ccc(F)cc2)c(C)c1S(=O)(=O)NC1CC1	i	0.14
9	CCOc1ccc(NS(=O)(=O)c2cc(C(=O)Nc3cccc(Cl)c3)n[nH]2)cc1	i	-0.08
10	COC(=O)c1c(NC(=O)Cc2coc3ccc(C(C)C)cc23)sc2c1CCC2	i	0.09
11	CN(C)c1ccc(C(CNC(=O)c2ccc(F)cc2)N(C)C)cc1 (stereo unspecified)	i	-0.39
12	C#CCSc1nc2ccccc2c2nc(-c3cccnc3)nn12	i	-0.59
13	O=C1COc2cc(C(=O)n3ccnc3)ccc2N1	i	0.29
14	Cc1ccc(C)c(C(=O)Cn2nc3n(CC(C)C)c(=O)c4ccc(C(=O)NCC(C)C)cc4n3c2=O)c1	i	-0.16
15	COCCNc1cc(C)nc2c(-c3ccc(C)cc3)c(C(F)(F)F)nn12	i	0.6
16	O=C(Cn1nnnc1-c1ccccc1F)Nc1cnc2ccccc2c1	i	0.29
17	COc1ccc(NS(=O)(=O)c2cnc(N)nc2)cc1OC	i	0.72
18	CCOc1ccc(N2C(=O)CN(Cc3ccc4c(c3)OCO4)[C@H]3CS(=O)(=O)C[C@H]32)cc1	i	0.44
19	CCOC(=O)c1nc(N2CCC(C(N)=O)CC2)c2c(C)noc2n1	i	-0.46
20	C=CCn1c(=O)c2ccc(C(=O)NCC(C)C)cc2n2c(=O)n(CC(=O)NC3CCCC3)nc12	i	-0.39
21	S=c1nc[nH]c2nc(N3CCSCC3)sc12	i	0.53
22	CCC(C)(C)C(=O)Nc1ccc(-n2c(C)nc3ccccc3c2=O)cc1	i	-0.44
23	CCc1ccc2occ(CC(=O)Nc3c(C(=O)c4ccc(F)cc4)oc4ccccc34)c2c1	i	0.11
24	CN1C(=O)c2cc3ccccc3n2CC1(C)C(=O)NCC(=O)NCc1ccccc1F (stereo unspecified)	i	0.7
25	COc1ccc(-n2ccc(=O)c(-c3nc(-c4cc(OC)cc(OC)c4)no3)n2)cc1	i	-0.37
26	Cc1cc(-c2cc(S(=O)(=O)NCc3ccc(Cl)cc3)c(C)s2)on1	i	1.62
27	CC(=O)OCCNC(=O)c1cccnc1	i	0.78
28	COc1cc2c3cc1Oc1c(OC)c(OC)cc4c1[C@@H](Cc1ccc(OC(=O)c5ccc([N+](=O)[O-])cc5)c(c1)Oc1ccc(cc1)C[C@@H]3N(C)CC2)N(C)CC4	i	0.72
29	COC(=O)c1cn(C)c(=O)c2ccccc12	i	-0.73
30	O=c1nc(SCc2ccccc2Cl)c2c(n1CCc1ccccc1)CCC2	i	2.62
31	CCCCC[C@H](O)/C=C/[C@@H]1[C@H](C/C=C\CCCC(=O)O)[C@H](O)C[C@H]1O	i	-0.21
32	CC(C)NC(=O)C1CCN(c2ncc(-c3ccccc3)cn2)CC1	i	-2.18
33	CCC(C)NC(=O)CCc1nc(-c2nn(-c3ccc(F)cc3)c(=O)n(C)c2=O)no1 (stereo unspecified)	i	0.78
34	Cc1ccc(NC(=O)N2CCN(C)c3ncccc32)cc1C	i	0.23
35	COc1ccc(NS(=O)(=O)c2ccc3c(c2)C(C)(C)CN3CC(=O)N2CCCC2)cc1OC	i	-0.14
36	O=C(NC1CCCCC1)c1nc(CCS(=O)(=O)c2ccccc2)no1	i	-0.42
37	CC(C)c1cc(C2CCCN2Cc2ccc(O)cc2)on1 (stereo unspecified)	i	-0.73
38	Cn1nc(-c2nc(-c3ccccc3)no2)c2c1CCN(S(=O)(=O)c1ccc3c(c1)CCC3)C2	i	-0.56
39	CCn1nc(C)c2c1c(=O)n(Cc1ccccc1)c(=O)n2CC(=O)Nc1ccsc1C(=O)OC	i	-0.52
40	Cc1ccc2nc3c(cc2c1)CCN3C(=O)C(C)C	i	0.37
41	Cc1ccc(S(=O)(=O)n2nc(-c3cccnc3)nc2NCc2ccc(F)cc2)cc1	i	-0.04
42	COc1ccc2nc(NC(=O)c3cc4ccc5ccc(C)[nH]c5c4n3)sc2c1	i	-0.12
43	COc1ccccc1-n1ncc2c(=O)[nH]c(SCC(=O)NCc3ccccc3Cl)nc21	i	0.52
44	Cn1c(=O)[nH]c(=O)c2c1nc1n2CCCN1c1ccc(S(N)(=O)=O)cc1	i	0.84
45	Cc1cc(C(=O)N2CCN(c3ccc(F)cc3)CC2)on1	i	0.82
46	O=S1(=O)C[C@H](N2CCc3ccccc3C2)[C@@H](S(=O)(=O)c2ccccc2)C1	i	0.52
47	Cc1csc2nc(CNS(=O)(=O)c3ccccc3)cn12	i	-0.32
48	COCCNS(=O)(=O)c1cc(-c2cnn3c(C)cc(C)nc23)ccc1OC	i	-0.35
49	Cc1ccc(C(C)NC(=O)c2nnc(-c3ccc(S(=O)(=O)N(C)C)cc3)o2)c(C)c1 (stereo unspecified)	i	-0.44
50	Cc1ccc(-c2cnc(N3CCCC(C(=O)NC4CCCC4)C3)nc2)cc1 (stereo unspecified)	i	-1.79

Continued.
no.	canonical_smiles	Choline anaer gr	Choline anaer gr early
51	COc1ccc(NC(=O)N2CCN(c3ccc(=O)n(-c4ccc(F)cc4)n3)CC2)cc1	i	-1.04
52	CCSc1nnc2c(n1)OC(c1ccc(N(CC)CC)cc1OC)N(C(C)=O)c1ccccc1-2 (stereo unspecified)	i	0.24
53	CN(C)c1ccc(C(CNC(=O)c2ccc(Br)cc2)N2CCc3ccccc3C2)cc1 (stereo unspecified)	i	-0.1
54	CN(C)CCOC(=O)COc1ccc(Cl)cc1	i	0.65&0.6&0.52
55	Cc1ccc(NS(=O)(=O)c2ccc3c(c2)sc(=O)n3CCC(=O)N2CCCC2)nc1	i	1.06
56	O=C(NC1CCCC1)c1ccc(-c2cc(N3CCOCC3)ncn2)cc1	i	0.24
57	Cc1cc(C2CCCN2Cc2cn[nH]c2-c2cccs2)no1 (stereo unspecified)	i	-0.79
58	CCN1CCCC1CNC(=O)C1=Cc2ccccc2OC1 (stereo unspecified)	i	-3.51
59	Cc1ccc(N(Cc2nc3nc(C)cc(=O)n3[nH]2)C(=O)c2ccc(Cl)cc2)cc1	i	-0.33
60	CS(=O)(=O)N1CC(C(=O)NC2CCCC2)Oc2ccccc21 (stereo unspecified)	i	0.16
61	CCn1c(=O)n(CC)c2cc(NC3=C(C(=O)N4CCOCC4)S(=O)(=O)c4ccccc43)ccc21	i	0.07
62	COc1ccc(C2=C(C)C(N3CCC(C(=O)NCC4CCCO4)CC3)=NS2(=O)=O)cc1 (stereo unspecified)	i	-0.52
63	Cc1cnc(NC(=O)C2=C(O)c3ccccc3S(=O)(=O)N2C)s1	i	-0.34&0.37&0.65
64	CCc1nnc(-c2csc(S(=O)(=O)N3CCC4(CC3)OCCO4)c2)o1	i	-1.22
65	Cc1nn2c(=O)cc(COc3ccc(C(C)(C)C)cc3)nc2s1	i	0.72
66	O=C(CCCc1nnc2n3nc(-c4ccccc4)nc3c3ccccc3n12)N1CCC(N2CCCCC2)CC1	i	1.59
67	O=C(NCC1COCCO1)c1cc2n(n1)CCCN(Cc1ccc(F)cc1)C2=O (stereo unspecified)	i	-0.8
68	Cc1cc(C)c2c(n1)sc1c(=O)n(-c3ccc(C(=O)Nc4ccc(C)c(F)c4)cc3)cnc12	i	0.85
69	O=C(NCc1ccc2c(c1)OCO2)c1ccc(-c2noc(C3CC3)n2)cc1	i	0.22
70	CC(C)c1cc(C(=O)N2CCCC2c2cc(C(C)C)no2)on1 (stereo unspecified)	i	-0.01
71	CC(=O)Nc1ccc2nc(N3CCC(C(=O)N4CCCC4)CC3)cc(C)c2c1	i	-2.88
72	Cn1cc(CN2CCC(C(=O)N3CCCC3)CC2)c2cc(Cl)ccc21	i	-0.88
73	Cc1nc(-c2cc(S(=O)(=O)N3CCCC(C(=O)N4CCC(C)CC4)C3)c(C)s2)no1 (stereo unspecified)	i	0.55
74	CCCc1cc(Sc2ccc(NC(=O)Nc3ccc4c(c3)OCCO4)cc2)n2ncnc2n1	i	-0.38
75	Cc1ccc(CN2CCN(C3CCN(C(=O)CC4CCCCC4)CC3)C(=O)C2=O)cc1	i	-0.11
76	CC(C)OC(=O)c1cn(C)c(=O)c2ccccc12	i	0.99
77	CN(C)c1ccc(NS(=O)(=O)c2ccc(F)c(F)c2)cc1C(=O)O	i	0.07
78	O=C(CC1CCN(S(=O)(=O)c2ccc(Cl)cc2)CC1)NCCCN1CCCC1	i	-0.23
79	COc1ccc(-c2nn3c(N4CCC(C)CC4)cc(C)nc3c2C)cc1OC	i	-0.26
80	CCc1c(N2CCCCC2)nc2n(c1=O)CCCS2	i	-0.03
81	CCNC(=O)CN1C(=O)CCc2cc(S(=O)(=O)N3CCC(C)CC3)ccc21	i	-0.15
82	O=c1cc(CN2CCCc3ccccc32)nc2sccn12	i	-0.11
83	CC1CCN(S(=O)(=O)c2cc(-c3nnc(C4CCCC4)o3)co2)CC1	i	0.26
84	Cc1ccccc1C(=O)N1CCN(c2ncnc3c2c(-c2ccccc2)cn3-c2ccccc2)CC1	i	0.62
85	O=C(NCc1ccccc1Cl)c1cnn2c(C(F)(F)F)cc(-c3ccccc3)nc12	i	1.43
86	CCN(c1nc2nc(C)c(Cl)c(C)n2n1)S(=O)(=O)c1ccc(Cl)cc1	i	-0.75
87	O=S(=O)(c1ccc2c(c1)OCCO2)N1CCCC1c1ccccc1F (stereo unspecified)	i	0.29
88	Cc1onc(-c2ccccc2Cl)c1C(=O)Nc1ccc2[nH]c(=O)oc2c1	i	-0.24
89	CCC1CCCCN1C(=O)Cn1c(=O)c2c(C(=O)OC)cc(C)nc2n(-c2ccccc2)c1=O (stereo unspecified)	i	-1.84
90	Cc1ccc(-c2nc(C3CCN(C(=O)c4cc5ccccc5[nH]4)CC3)no2)cc1	i	0.58

Structures shown so far with a tert-butyl group:
no.	canonical_smiles	Choline anaer gr	Choline anaer gr early
1	COc1ccc(N2C(=O)c3cc(C(C)(C)C)nn3CC2(C)C(=O)NC2CCCCC2)c(OC)c1 (stereo unspecified)	i	-2.6
65	Cc1nn2c(=O)cc(COc3ccc(C(C)(C)C)cc3)nc2s1	i	0.72

(more compounds)
no.	canonical_smiles	Choline anaer gr	Choline anaer gr early
91	O=C(Cc1csc(NC(=O)Nc2ccc(Cl)cc2)n1)Nc1ccccc1	i	1.53
92	Cc1ccc(NC(=O)c2ccc3nnc(SCC(=O)Nc4ccc(F)cc4)n3c2)cc1	i	0.57
93	CC(C)CN(C[C@@H](O)[C@H](Cc1ccccc1)NC(=O)O[C@H]1CO[C@H]2OCC[C@H]21)S(=O)(=O)c1ccc(N)cc1	i	0.82
94	Cc1ccc(CNc2cc(C)nc3nncn23)cc1	i	-1.85
95	COc1cccc(NC(=O)N2CCCC2c2ccc(Cl)cc2)c1 (stereo unspecified)	i	-0.32
96	Cc1ccc(C(=O)Nc2nc(-c3ccc4c(c3)N(C)C(=O)CO4)cs2)cc1	i	0.48
97	O=S(=O)(c1ccc(Cl)cc1)N1CCC2(CC1)Nc1ccc(Cl)cc1-n1cccc12	i	-0.36
98	CN=C(NC#N)NCCSCc1nc[nH]c1C	i	-1.02&-0.03&0.37&-0.12
99	Cc1ccccc1C1CCCN1C(=O)NC1CCCC1 (stereo unspecified)	i	0.01
100	O=C(CCC(=O)N1CCc2cc(S(=O)(=O)NCc3ccc4c(c3)OCO4)ccc21)N1CCCC1	i	1.05

Full records, quoted from the list. Values in the order: Choline anaer gr	Choline anaer gr early
Listed for COc1cccc(NC(=O)N2CCCC2c2ccc(Cl)cc2)c1 (stereo unspecified) → i	-0.32
Listed for Cc1ccc(C)c(C(=O)Cn2nc3n(CC(C)C)c(=O)c4ccc(C(=O)NCC(C)C)cc4n3c2=O)c1 → i	-0.16
Listed for Cc1csc2nc(CNS(=O)(=O)c3ccccc3)cn12 → i	-0.32
Listed for O=C1COc2cc(C(=O)n3ccnc3)ccc2N1 → i	0.29

Later entries.
no.	canonical_smiles	Choline anaer gr	Choline anaer gr early
101	CCOC(=O)c1ccc(S(=O)(=O)Nc2c(C)nc3nc(C)[nH]n3c2=O)cc1	i	0.31
102	CN(Cc1ccc(F)cc1)Cc1cc(=O)n2cc(Cl)ccc2n1	i	-0.99
103	CN1CCN(C(CNC(=O)C(C)(C)C)c2ccc(N(C)C)cc2)CC1 (stereo unspecified)	i	-0.15
104	O=C1COc2ccccc2N1Cc1nc(-c2ccc3c(c2)Sc2ccccc2C(=O)N3C2CC2)no1	i	0.77
105	CCOC(=O)c1[nH]c(C)c(S(=O)(=O)NCc2cccnc2)c1C	i	-0.48
106	Cc1cc(C)c(NC(=O)Cn2c3ccccc3n3c(=O)cc(-c4ccccc4)nc23)c(C)c1	i	-0.57
107	CCCC(=O)OCc1cnc(C)c2oc(=O)c(C(=O)Nc3ccccc3OC)cc12	i	1.23
108	CCc1cc(C2CCCN2S(=O)(=O)c2c(C)cc(C)cc2C)on1 (stereo unspecified)	i	-1.45
109	COc1ccc(-c2nnc(SCC(=O)Nc3cc(C)ccn3)n2-c2ccccc2)cc1	i	0.42
110	O=c1n(Cc2cccc(Br)c2)nc2c(S(=O)(=O)N3CCc4ccccc4C3)cccn12	i	0.63
111	COc1ccccc1-c1ccnc2c(-c3ccc(Br)cc3)c(C)nn12	i	0.85

Bioassay records from PubChem BioAssay.
